Assay outcomes as filed in PubChem.
Hsc70 ATP site = Hsc70 inhibitors, probe displacement, primary screen, biochemical, fluorescence polarization (AID 568); 83,000 tested, under 10 active; one-dose displacement, % at 20 µM; IC50 in µM for titrated hits; Hsc70 fluorescence polarization, probe displacement; higher % means a stronger effect; strong numbers were not always called active;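 active = displacement above 50% without optical interference and an IC50 on retest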;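 also: ATPase domain with a fluorescein-tagged ATP probe; 0% = vehicle and 100% = excess ADP; read after one hour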
WNV protease inh = blocks West Nile virus NS2B-NS3 protease activity. WNV NS2B-NS3 protease, fluorogenic substrate Ex360/Em465; stronger effect = lower value. z-score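 (tested at a level between 10 and 100 µM)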. actives 0.18% (n = 65,000);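 active = z-score at -3 or under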;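 also: score is relative to mean and spread of the compound wells of a plate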
Target sequence (P06935 1371-1501 limits assumed): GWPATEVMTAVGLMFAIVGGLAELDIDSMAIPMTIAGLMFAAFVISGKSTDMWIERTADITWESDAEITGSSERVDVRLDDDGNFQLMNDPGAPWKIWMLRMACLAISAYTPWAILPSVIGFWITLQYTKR
Target sequence (P06935 1502-1679 limits assumed): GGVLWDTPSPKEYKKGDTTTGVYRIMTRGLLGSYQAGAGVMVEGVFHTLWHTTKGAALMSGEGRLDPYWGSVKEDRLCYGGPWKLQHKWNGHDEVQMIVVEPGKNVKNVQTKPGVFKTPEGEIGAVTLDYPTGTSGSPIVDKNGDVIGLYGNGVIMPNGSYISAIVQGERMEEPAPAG
MT1-MMP reporter = MT1-MMP gene expression reporter suppression – cell-based, luciferase reporter, luminescence (AID 618); MT1-MMP promoter luciferase reporter cells, luminescence; calls from a first round at 10 µM; hits with a dose series show EC50 in µM; actives 0.62% (n = 87,000);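 active = over half of the reporter light lost at 10 µM or EC50 under 50 µM; inactive = the rest and hits that failed the dose series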;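 also: actives suppress MT1-MMP promoter-driven transcription so potencies describe inhibitors; HT1080 fibrosarcoma cells; overnight exposure; toxic or luciferase-blocking compounds were not removed from the actives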
Numbers without * were called inactive; i = inactive; x = not tested or not shown.

SMILES | Hsc70 ATP site | WNV protease inh | MT1-MMP reporter
CCOC(=O)CN(C(=O)CSc1nnc2c(n1)[nH]c1ccc(F)cc12)c1ccccc1 | 1.7% | x | i
CCOCCCNC(=O)c1ccccc1Br | -12.8% | 1.56 | i
CCOC(=O)c1sc(NC(=O)CSc2nnc(-c3ccco3)o2)c(C(=O)OCC)c1C | -9.9% | -0.05 | i
CCCCCCCCNC(=O)CCNC(=O)c1ccc(C(C)(C)C)cc1 | -4.3% | x | i
O=C(NCc1ccc2c(c1)OCO2)C1CCCN1C(=O)Nc1ccccc1 (stereo not given) | 2.8% | -0.96 | i
CC(=O)Oc1ccc2oc3c(c2c1)C(=O)CCC3 | 4.2% | 0.42 | i
COc1ccc(C(=O)Nc2ccc(CN3CCOCC3)cc2)cc1 | -5.2% | x | i
O=C(COc1ccc(Cl)cc1Cl)NC(=O)N1CCOCC1 | 2.0% | -1.18 | i
O=C(CN1C(=O)CSC1=O)N1CCCCC1 | 3.4% | x | i
O=S(=O)(c1ccc2c(c1)OCCO2)N1CCC(c2nc3ccccc3[nH]2)CC1 | 7.0% | -0.02 | i
O=C(Nc1cccc2ncccc12)C12CC3CC(CC(C3)C1)C2 | 6.9% | x | i
COc1ccc(C2CC(C(F)(F)F)n3nc(C(=O)N(C)Cc4cn(C)nc4C)c(Cl)c3N2)cc1 (stereo not given) | -5.4% | 0.47 | i

The last 2 entries of the part above lead into the next:
SMILES | Hsc70 ATP site | WNV protease inh | MT1-MMP reporter
O=C(Nc1cccc2ncccc12)C12CC3CC(CC(C3)C1)C2 | 6.9% | x | i
COc1ccc(C2CC(C(F)(F)F)n3nc(C(=O)N(C)Cc4cn(C)nc4C)c(Cl)c3N2)cc1 (stereo not given) | -5.4% | 0.47 | i
CCOc1ccc(-n2c(C)nnc2SCC(=O)N(CC)CC)cc1 | -3.2% | x | i
NC(=O)c1c(NC(=O)COC(=O)CSc2nnc(-c3ccc(Cl)cc3)o2)sc2c1CCC2 | -12.8% | -0.76 | i
CCCCN(CCCC)S(=O)(=O)c1ccc(C(=O)Nc2nnc(COC)o2)cc1 | 2.8% | -0.7 | i
CCCN(CCC)C(=O)CSc1nc2n[nH]c(C)c2c(=N)n1-c1ccc(OCC)cc1 | -3.0% | 0.68 | i
CCOc1cccc(C(=O)Nc2ccc(N3CCN(S(C)(=O)=O)CC3)cc2)c1 | -8.5% | 0.64 | i
CN(C)c1ccc(C(=O)c2ccc(O)cc2O)cc1 | -3.6% | x | i
Cc1ccc(CSCCNC(=O)c2ccc(Cl)c(S(=O)(=O)N3CCOCC3)c2)cc1 | -4.8% | x | i
Cc1nc2sc(C(c3cccs3)N3CCN(C(=O)c4ccco4)CC3)c(O)n2n1 (stereo not given) | 0.7% | -1.28 | i
COc1ccc2c(C(F)(F)F)cc(=O)oc2c1C | 6.7% | 1.69 | i
COC(=O)CSc1nc(C2CC2)nc2ccccc12 | -2.0% | 0.09 | i
O=C(c1ccc2c(c1)C(=O)N(Cc1ccco1)C2O)N1CCOCC1 (stereo not given) | -0.9% | 0.03 | i
CCN(C1CCCCC1)S(=O)(=O)c1cc(C)ccc1OC | -2.6% | -1.02 | i
C=C(C)Cn1c(SCC(=O)O)nnc1-c1ccc(OC)cc1 | 8.9% | x | i
Cc1nc2ccc(NC(=O)c3c(-c4ccccc4)noc3C)cc2s1 | 3.4% | -0.6 | i
CCOC(=O)c1ccccc1NC(=O)CSc1nc2ccccc2n1CC(=O)N1CCCC1 | 1.2% | -0.53 | i
CCOC(=O)c1cccc(NC(=O)COC)c1 | 2.6% | x | i
CCC(C)[C@@H](NC(=O)OC(C)(C)C)c1nnc(S(=O)(=O)Cc2cccc(C)c2)o1 (stereo not given in full) | -3.1% | -0.48 | i
COc1ccccc1-c1cc(C(=O)NCc2ccc(F)cc2)no1 | 6.7% | -0.74 | i
COC(=O)CNC(=O)C12CC3(C)CC(C)(CC(C)(C3)C1)C2 | -3.3% | -0.42 | i
CC(=O)Nc1ccc2c(c1)CCCN2C(=O)c1ccccc1 | 1.0% | -0.69 | i
Cc1cccc(CCNS(=O)(=O)c2cnc[nH]2)c1 | -14.4% | 0.54 | i
COc1cccc(NC(=O)C2CCN(c3ncccn3)CC2)c1 | -2.6% | -0.69 | i
Cc1ccc(C(=O)CCC2CCCC2=O)cc1 (stereo not given) | 1.7% | 0.63 | i
O=C1NC(c2cccs2)Nc2ccccc21 (stereo not given) | -2.0% | 0.35 | i
CC(Cc1ccccc1)N/C=C1/CC(=O)NC1=O (stereo not given) | 0.3% | 1.34 | i
CS(=O)(=O)N(CC(=O)N1CCC(C(N)=O)CC1)c1ccc(Oc2ccccc2)cc1 | 0.4% | -0.23 | i
Cc1ccc(-c2nnn(CC(=O)N(CC3CCCO3)C(C(=O)NC3CCCC3)c3ccc(F)cc3)n2)o1 (stereo not given) | 0.7% | x | i
CCCC1(CCC)NC(=O)NC1=O | 5.6% | -0.14 | i
CCOCCCNS(=O)(=O)c1ccc(Br)cc1 | -0.5% | 0.08 | i
CCc1cccc2c(=O)c(C(=O)N3CCOCC3)c[nH]c12 | 4.9% | 0.47 | i
CCCn1c(=S)[nH]c2cc(OC)c(OC)cc2c1=O | -5.2% | x | i
CCOC(=O)C(C)Sc1nnc(Cc2cc(=O)[nH]c(=O)[nH]2)n1-c1ccc(OCC)cc1 (stereo not given) | 5.1% | -0.34 | i
Cc1ccc(CSc2ncn(-c3ccccc3)n2)cc1 | -1.3% | x | i
Cc1nnc(Sc2nc3c(c(=O)[nH]c(=O)n3C)n2Cc2ccccc2Cl)s1 | 2.4% | -0.96 | i
O=C(CSC1=NC(=O)C(Cc2ccccc2)C(=O)N1)NC1CCCCC1 (stereo not given) | -0.4% | 1.81 | i
CN(C(=O)OCc1ccccc1)C(CC(N)=O)C(=O)O (stereo not given) | -2.7% | 1.28 | i

Whole records, looked up by structure. Order of screens: Hsc70 ATP site	WNV protease inh	MT1-MMP reporter
`O=C(CSC1=NC(=O)C(Cc2ccccc2)C(=O)N1)NC1CCCCC1` (stereo not given) is listed as -0.4%	1.81	i
`CCc1cccc2c(=O)c(C(=O)N3CCOCC3)c[nH]c12` is listed as 4.9%	0.47	i
`CC(Cc1ccccc1)N/C=C1/CC(=O)NC1=O` (stereo not given) is listed as 0.3%	1.34	i
`Cc1ccc(CSc2ncn(-c3ccccc3)n2)cc1` is listed as -1.3%	x	i
`CCOCCCNS(=O)(=O)c1ccc(Br)cc1` is listed as -0.5%	0.08	i

(continued)
SMILES | Hsc70 ATP site | WNV protease inh | MT1-MMP reporter
N#C[C@@H]1[C@@H]2C(=O)N(c3ccc4c(c3)OCCO4)C(=O)[C@@H]2C2c3ccccc3C=CN21 (stereo not given in full) | 13.9% | -0.22 | i
Cc1ccc(/C(O)=C2/C(=O)C(=O)N(CCN3CCOCC3)C2c2cccnc2)cc1 (stereo not given) | 5.3% | -1.07 | i
Cc1ccc(C(=O)CCCn2nnc(-c3cccnc3)n2)cc1C | -1.4% | x | i
CCOC(=O)c1ccc(NS(=O)C23CC4CC(CC(C4)C2)C3)cc1 (stereo not given) | 5.2% | -0.76 | i
O=C(CN1C(=O)c2ccccc2C1=O)Nc1ccc(-c2nc3ccccc3o2)cc1 | 0.2% | -0.33 | i
COc1ccc(S(=O)(=O)N2CCc3ccccc32)cc1C(=O)OCc1c(C)noc1C | 3.1% | -0.71 | i
c1ccc(-n2nnnc2-n2nnc3ccccc32)cc1 | 6.6% | 0.26 | i
Cc1noc(C)c1CSCC(=O)OCC(=O)N1CC(=O)Nc2ccccc21 | 4.4% | -0.21 | i
Cc1ccc2c(c1)NC(=O)C(CC(=O)NCc1ccc(F)cc1)O2 (stereo not given) | 0.5% | -0.02 | i
CC(C)Cn1cc(C(=O)NCc2cccs2)c2c3ccccc3n(C)c2c1=O | -1.4% | 0.39 | i
COc1cccc(OC)c1-c1nnc(-c2cn(C)c3ccccc23)o1 | 2.9% | 1.24 | i
COc1ccc(OC)c2[nH]c(=O)c(CCNC(=O)c3ccc(S(=O)(=O)N4CCCCC4)cc3)cc12 | -4.8% | 0.18 | i
CCN(CC)S(=O)(=O)c1cccc(C(=O)NC2CCCCC2)c1 | 11.1% | 0.33 | i
CC(=O)Nc1ccc(C(=O)OCC(=O)NC(=O)NC(C)(C)C)cc1 | 1.6% | x | i
CN(CC(=O)N1CCN(c2ccccn2)CC1)S(=O)(=O)c1ccccc1 | 8.0% | 0.25 | i
COc1ccc(CCNC(=O)c2n[nH]c(=O)c3ccccc23)cc1 | 1.6% | x | i
O=C(NCc1cccs1)c1ccc2c(c1)ncn2C1CCCC1 | -12.3% | -0.84 | i
Cn1c(CCNC(=O)c2cccs2)nnc1SCC(=O)N1CCN(c2ccccc2)CC1 | 2.9% | 1.28 | i
COc1ccc(N2C(=O)CCC(C(=O)Nc3ccccn3)C2c2ccc(OC)c(OC)c2)cc1 (stereo not given) | -3.8% | 0.04 | i
COc1ccc(-c2nc3c(=O)n(C)c(=O)[nH]c3n2CCc2ccccc2)cc1 | -1.3% | -3.48* | i
Cc1cc(C)n(Cc2cccc(F)c2)c(=O)c1C#N | 3.0% | -0.12 | i
CN1CCN(C2OC(=O)c3ccccc32)CC1 (stereo not given) | -4.1% | x | i
O=C(CSC1=Nc2ccccc2C2=NC(CC(=O)NC3CCCCC3)C(=O)N12)NCc1ccco1 (stereo not given) | 8.7% | -0.29 | i
CSc1nc2n(n1)C(c1cc(Br)ccc1F)C(C(=O)N(C)C)=C(C)N2 (stereo not given) | -1.8% | -0.27 | i
O=C(NCCc1ccccc1)c1ccnc(/C=N/O)c1 | -4.1% | -0.22 | i
C=CCn1c(SCc2nc3ccccc3c(=O)[nH]2)nc2ccccc2c1=O | -2.7% | x | i
Cc1ccc(C)c(NC(=S)NC(NC(=O)Cc2cccc3ccccc23)C(Cl)(Cl)Cl)c1 (stereo not given) | -1.3% | x | i
O=C(Nc1cccc(NC(=O)c2cccnc2)c1)c1cccnc1 | -0.2% | -0.45 | i
COc1ccccc1NC(=O)c1cc(C(=O)O)ccc1C(=O)O | -2.6% | -0.36 | i
Cc1csc(SCC(=O)Nc2ncc(Cl)c(C)c2Cl)n1 | -1.2% | x | i
Cc1ccc(C)c(-n2c(C)cc(/C=N/NC(=O)c3c(C)nc4cc(C)ccn34)c2C)c1 | 2.4% | x | i
COc1ccc(Cl)cc1NS(=O)(=O)c1ccc(S(=O)(=O)N2CCCC2)cc1 | 3.1% | -0.98 | i
CC(C)CNS(=O)(=O)c1ccc(OCC(=O)Nc2ccc3c(c2)OCO3)c(Cl)c1 | 0.0% | 0.53 | i
Cn1c(=O)c2c(nc(CN3CCN(Cc4ccccc4)CC3)n2Cc2ccc(Cl)cc2)n(C)c1=O | 2.5% | -0.24 | i
COc1ccc(NC(=O)CC2Sc3ncnn3C2=O)cc1 (stereo not given) | 1.0% | -0.52 | i
Cc1ccc2oc(=O)n(Cc3ccccc3OC(C)C)c2c1 | -6.7% | -0.61 | i
CCCOc1ccc(N2C(=O)CC(N3CCN(c4ccccc4OC)CC3)C2=O)cc1 (stereo not given) | 8.9% | 1.26 | i
Cc1ccc(NC(=O)c2c(-c3c(F)cccc3Cl)noc2C)cc1F | 7.6% | -1 | i
CCN(CC)C(=O)C1CCCN(Cc2ccccc2)C1 (stereo not given) | -4.0% | x | i
O=C(c1ccc2c(c1)OCO2)N1CCN(c2ccccc2)CC1 | 4.5% | 0.25 | i
COCCCn1c(=N)c(C(=O)NC2CCCCC2)cc2c(=O)n3ccccc3nc21 | 2.4% | x | i
CCNC(=O)NC(=O)COC(=O)CNC(=O)COc1ccccc1 | 0.9% | -0.13 | i
CCOC(=O)c1cc(NC(=O)CSCCO)ccc1Cl | -3.4% | 0.85 | i
CC(=O)Oc1ccc(N2C(=O)C3C4C=CC(CO)(O4)C3C2=O)cc1 (stereo not given) | 0.3% | x | i
N#CC1=C(N)SC(N)=C(C#N)C1C1CC=CCC1 (stereo not given) | -2.6% | -1 | i
Clc1cccc(Cl)c1Cn1cnc(=NCc2ccco2)c2[nH]cnc21 | -6.9% | 0.75 | i
Cn1cccc1Cc1nnc(SCC(=O)Nc2nc3ccccc3s2)n1CCc1ccccc1 | -3.9% | -1.54 | i
Cc1ccc(S(=O)(=O)c2c(N)n(/N=C/c3ccco3)c3nc4ccccc4nc23)cc1 | -26.3% | -1.63 | i
COc1ccccc1-n1nnnc1SCC(=O)Nc1cc(C)on1 | -0.3% | -0.41 | i
O=C(c1ccc2c(c1)OCCO2)C1CCN(C(=O)c2ccc(F)c(F)c2)CC1 | -1.0% | 0.26 | i
Cc1cc(N2CCN(S(=O)(=O)Cc3ccccc3)CC2)n2ncnc2n1 | -1.6% | -0.7 | i
COC(=O)c1ccc(Sc2ccc(C)cc2)c(N)c1 | -1.0% | -0.03 | i
Cc1onc(-c2ccccc2Cl)c1C(=O)NC1CCS(=O)(=O)C1 (stereo not given) | -1.3% | 0.17 | i
CCOC(=O)C1CCN(Cc2nc3ccc(Cl)cc3n2CCO)CC1 | 0.6% | -0.73 | i
NC(=O)CSC1=Nc2ccccc2C2=NC(CC(=O)NCc3cccs3)C(=O)N12 (stereo not given) | -1.9% | -0.7 | i
Cc1ccccc1CN1C2=NCCCN2c2ccccc21 | 5.0% | x | i
C=CCNc1nc(NCc2ccccc2)c(C#N)c2c1CN(C)CC2 | -2.1% | -0.54 | i
Cc1nc2nc(-c3ccco3)nn2c(C)c1Cl | 10.8% | 0.41 | i
CC(C)=C(C#N)c1nc2ccccc2s1 | -4.8% | 0.39 | i
